High-throughput results from PubChem.
PINK1 expr mod – PINK1 expression modulation | Potency, µM (doses to about 76.6 µM), for inactives: top-dose activation (PINK1 increase), hits mostly activators | actives 0.2% (n = 410,000) | AID 624263 | PINK1 immunofluorescence, high-content cytometry, 24 h; active = well fitted activation curve with a large enough effect; inconclusive = small, poorly fitted or top-dose-only effect; inactive = flat fitted curve, though single readings scatter; cell line not stated here;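 also: potency is read from the fitted curve at half-maximal effect; % of control where 0% means no effect; nearly all actives have a fitted effect of over 65% in size; a mitochondrial uncoupler was the plate control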
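Compound titrations (5 concentrations, 24 h) on a stable cell line; DMSO and CCCP controls. Endpoint: fixed-cell PINK1 immunofluorescence with mitochondrial, cell and nuclear markers, scanned by microplate cytometer.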
CtBP-E1A inh – blocks the CtBP interaction with E1A; actives 0.49% (n = 340,000); activity change, % (no concentration beside the values); AlphaScreen GST-E1A/His-CtBP binding, 1536-well; hits give low values; control for the full effect not named in the record; AID 651724; in the data active means activity change below about -65%; inconclusive means about -30% to -65%; inactive means above about -30%; also: % is scaled to controls: 0 for no effect and ±100 for the full control effect; compound concentration not given in the record
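Protein mix (5X: 125 nM each GST-E1A, His-CtBP) was incubated with pinned compound 2 h at 37 deg C in dark, in 50 mM Tris pH 8.0 buffer with 300 mM NaCl. Glutathione donor and nickel acceptor beads followed; AlphaScreen signal read after 1 h.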
D2 ag – agonists of human D2 dopamine receptor (beta-arrestin) | P14416 | DiscoveRx PathHunter D2 beta-arrestin, luminescence, 90 min; 100% = 57 uM dopamine signal | activation, % (concentration not given with the values) | actives 0.084% (n = 360,000) | AID 624465; in the data active = activation above about 40%; inconclusive = about 15% to 40%; inactive = below about 15%; also: compound concentration not given in the record; the text of the record calls up to 30% inactive
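Agonist mode: compounds alone added to overnight-plated D2 PathHunter cells for 90 min at 37 C, with 57 uM final dopamine (EC100) defining full response. Beta-arrestin recruitment detected by chemiluminescent reagent, read after 1 h at ambient temperature.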
TRPML1 ag – agonists of human TRPML1 channel; Q9GZU1; TRPML1-expressing cells, Ca2+ dye fluorescence, FDSS; host cell line not named in the record; reference of the full effect not given here; activation, % (no concentration beside the values); actives 0.12% (n = 410,000); AID 624414; in the data active = activation above about 50%; inconclusive = about 30% to 50%; inactive = below about 30%; also: 0% is about no effect; the text of the record puts the active cut at 80%
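Tetracycline-induced TRPML1-DL cells are seeded and incubated overnight before loading with a no-wash Ca2+ dye and quencher. Agonist activity is taken from the 110 s fluorescence read following compound pin-transfer on an FDSS, before EC80 54-4 challenge.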
D2 potentiator – positive allosteric modulators of human D2 dopamine receptor. P14416. DiscoveRx D2 beta-arrestin cells, luminescence, 90 min; 100% = 57 uM dopamine signal. potentiation, % (concentration not given with the values). actives 0.23% (n = 360,000); active = potentiation of 50% or more; inconclusive = 30% to 50%; inactive = 30% or less;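 also: compound concentration not given in the record; tested on top of an EC20 dose of dopamine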
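PathHunter D2 cells, attached overnight at 37 deg C, received compound in DMSO plus dopamine at EC20 (50 nM final) for 90 min at 37 deg C. Beta-arrestin recruitment was read as luminescence after 1 h with detection reagent at ambient temperature.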
Six1-Eya2 inh – Six1/Eya2 interaction inhibition; AlphaScreen GST-Six1/His-Eya2 binding, biochemical; hits give low values; control for the full effect not named in the record; activity change, % (no concentration beside the values); actives 0.56% (n = 360,000); AID 651725; in the data active = activity change below about -65%; inconclusive = about -30% to -65%; inactive = above about -30%; also: % is scaled to controls: 0 for no effect and ±100 for the full control effect; compound concentration not given in the record
Target sequence (O00167 whole entry, looked up): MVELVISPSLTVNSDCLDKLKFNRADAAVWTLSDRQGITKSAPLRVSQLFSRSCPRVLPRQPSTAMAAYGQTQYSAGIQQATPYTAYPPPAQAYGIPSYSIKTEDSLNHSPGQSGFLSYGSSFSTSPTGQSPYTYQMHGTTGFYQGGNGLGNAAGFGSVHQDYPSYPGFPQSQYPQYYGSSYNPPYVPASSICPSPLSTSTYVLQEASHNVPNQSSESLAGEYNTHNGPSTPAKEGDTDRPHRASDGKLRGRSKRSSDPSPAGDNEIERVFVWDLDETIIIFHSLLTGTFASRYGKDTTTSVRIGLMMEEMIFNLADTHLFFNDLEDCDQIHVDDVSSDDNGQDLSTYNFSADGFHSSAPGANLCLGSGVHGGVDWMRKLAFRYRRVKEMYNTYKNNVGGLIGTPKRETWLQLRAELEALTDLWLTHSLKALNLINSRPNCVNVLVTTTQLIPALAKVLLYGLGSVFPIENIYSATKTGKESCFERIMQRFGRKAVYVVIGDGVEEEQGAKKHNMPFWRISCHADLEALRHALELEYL
Target sequence (Q15475 whole entry, looked up): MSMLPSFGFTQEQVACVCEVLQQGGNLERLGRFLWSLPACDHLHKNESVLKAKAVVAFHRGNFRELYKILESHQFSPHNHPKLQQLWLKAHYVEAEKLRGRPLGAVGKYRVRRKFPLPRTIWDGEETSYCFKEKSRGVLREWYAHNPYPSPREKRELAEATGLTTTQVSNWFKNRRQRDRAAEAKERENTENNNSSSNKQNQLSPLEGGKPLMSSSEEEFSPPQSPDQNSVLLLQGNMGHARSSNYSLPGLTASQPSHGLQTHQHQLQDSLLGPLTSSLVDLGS
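Homogeneous AlphaScreen proximity assay pairing GST-Six1 with His-tagged Eya2 (added as 5X mix: 250 nM and 500 nM) in 50 mM Tris pH 8.0, 300 mM NaCl, 1 mM TCEP. Glutathione donor and nickel acceptor beads; 1 h, 37 °C, dark.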
* marks the source's active call; other numbers are inactive results; ? = inconclusive; / = not tested or not shown; & = joins results of further samples; [ ] = dose if it differs, or a comment.

mol | PINK1 expr mod | CtBP-E1A inh | D2 ag | TRPML1 ag | D2 potentiator | Six1-Eya2 inh
O=c1[nH]cnc2sc(-c3ccccc3)cc12 | -3.4%[38.3 µM] | 7.3 | 0.4 | 0.5 | -1.1 | ?
CC1CCC(NC(=O)C2CCN(C(=O)Nc3ccccc3)CC2)CC1 (configuration not stated) | 1.6% | -12.4 | -0.7 | 0.0 | -2.8 | 4.9
Cc1cc(=O)oc2cc(OCCSc3nnc(-c4ccccc4)o3)ccc12 | 6.9% | 2.6 | 3.8 | -0.5 | 2.2 | 3.8
O=c1cc2c(nn1Cc1cccc(Cl)c1)-c1ccccc1CC2 | -1.7% | 8.3 | -1.8 | 3.7 | 4.1 | 0.6
COc1cccc(N2C(=NC(=O)C3CCCO3)SC3CS(=O)(=O)CC32)c1 (configuration not stated) | -0.4% | -10.9 | -1.0 | 0.1 | -4.9 | -0.5
CCCCn1c(N)c(N(CCOC)C(=O)CSc2nnc(-c3ccncc3)n2CCC)c(=O)[nH]c1=O | -4.1% | 4.1 | -2.0 | 0.6 | -10.0 | -6.0
C/C(=N\S(=O)(=O)c1ccc(C)cc1)NC(=S)Nc1ccccc1 | 1.0% | 2.3 | 4.5 | 0.8 | -6.4 | 1.8
CCOC(=O)C1CCN(C(=O)c2ccc(Br)o2)CC1 | -0.9%[38.3 µM] | 2.1 | -1.0 | -0.8 | -16.6 | -0.1
O=C(CSc1nnnn1-c1ccccc1)Nc1ccc(N2CCOCC2)cc1 | 0.2% | 0.0 | 3.8 | 1.2 | -22.2 | -0.6
CN(C)C=Nc1nc2ccccc2nc1N1CCCC1 | -1.7% | 0.0 | -5.0 | -0.6 | -17.4 | 1.0
CCOC(=O)c1ccccc1NC1OC(=O)c2ccccc21 (configuration not stated) | -1.1% | -2.1 | -0.6 | 0.0 | -6.2 | 3.6
CCCCCCCc1n[nH]c(=S)n1Cc1ccccc1 | 6.3% | 7.7 | 9.0 | 1.2 | -0.6 | -14.0
O=C(CCC(=O)Nc1ccc(F)cc1)N/N=C/c1ccc(O)cc1 | 2.6% | -29.9 | 0.5 | -0.8 | -9.2 | -14.5
Cc1cc(C)n(CC(=O)NNC(=O)C2CC(=O)N(Cc3ccccc3Cl)C2)n1 (configuration not stated) | 0.1% | -3.8 | -0.4 | -0.2 | -10.8 | -2.3
Nc1ccc2c(c1)C(=O)CCC2 | 0.9% | 2.8 | -4.3 | 0.3 | -10.3 | 34.4
COc1ccc(C(=O)Nn2c(SCC(=O)c3ccccc3)nc3ccccc3c2=O)cc1 | -0.5% | -10.3 | -1.5 | 0.6 | -20.7 | -2.0
COc1cccc(NC(=O)N(C)C[C@H]2OCc3cn(nn3)CCCC(=O)N([C@@H](C)CO)C[C@@H]2C)c1 | -2.0% | 0.0 | -3.0 | -0.1 | 2.2 | 18.0
O=C(Cn1cnc2c(cnn2-c2ccccc2)c1=O)OCc1ccccc1 | -0.1% | 6.7 | -0.3 | 2.5 | 14.0 | 5.5
COc1ccc([C@H]2C[C@@H](O)[C@H](n3cc(C4CC4)nn3)CN2C(=O)c2cccs2)cc1 | -0.6% | 3.2 | -3.7 | -0.4 | 3.2 | 1.0
O=S(=O)(c1ccc(Cl)cc1)c1nc(-c2ccco2)oc1N1CCCCC1 | -0.4% | -1.1 | -7.1 | 2.5 | -24.4 | 2.5

Compound profiles, as listed above. Order of values: PINK1 expr mod	CtBP-E1A inh	D2 ag	TRPML1 ag	D2 potentiator	Six1-Eya2 inh
Results for Cc1cc(C)n(CC(=O)NNC(=O)C2CC(=O)N(Cc3ccccc3Cl)C2)n1 (configuration not stated) → 0.1%	-3.8	-0.4	-0.2	-10.8	-2.3
Results for CCOC(=O)c1ccccc1NC1OC(=O)c2ccccc21 (configuration not stated) → -1.1%	-2.1	-0.6	0.0	-6.2	3.6

(list continues)
mol | PINK1 expr mod | CtBP-E1A inh | D2 ag | TRPML1 ag | D2 potentiator | Six1-Eya2 inh
CCOc1ccc(-c2nnc(NC(=O)CCCOc3cccc(C)c3)o2)cc1 | 2.4% | -3.0 | 3.1 | 0.8 | -5.0 | -1.1
CS(=O)(=O)c1ccc(-c2nnc(NC(=O)c3ccc(S(=O)(=O)N4CCCC4)cc3)o2)cc1 | 0.2% | -8.8 | -5.4 | 0.0 | 21.2 | -18.1
Cn1c(SCC2CCCCC2)nnc1-c1ccncc1 | 5.8% | 8.3 | -3.7 | -0.3 | -7.4 | -3.8
O=C(O)CSc1nc2ccccc2n1C1CCCCC1 | -0.8% | 4.2 | 1.9 | -0.1 | -0.3 | 4.6
CCOC(=O)CCC(NC(=O)c1ccc(NCN2C(=O)c3ccccc3C2=O)cc1)C(=O)OCC (configuration not stated) | 1.2% | -5.1 | -2.4 | -0.3 | -2.4 | 1.1
CNC(=O)NC(=O)CSc1nc2ccccc2n1CCOC | -1.3% | -3.8 | 0.3 | 2.4 | -0.3 | 11.5
CCOc1cccc(-c2c(C(=O)N/N=C/c3cccnc3)nnn2-c2nonc2N)c1 | -0.4% | -12.2 | -8.1 | -0.2 | -4.3 | 3.3
Fc1cccc(CCN2CCNC[C@@H]2Cc2ccccc2)c1 | 0.6% | -1.6 | -5.9 | 0.5 | -28.3 | 0.3
Cc1ccc(C(=O)NCCCn2ccnc2)o1 | -0.2% | -1.2 | -0.2 | -0.2 | -4.4 | -1.7
C/C(=C\c1ccccc1)C(=O)Nc1cc(C)on1 | 2.2% | 4.2 | -0.8 | -0.1 | -14.0 | -1.5
COc1ccc(C)cc1NC(=O)n1ncc2c(C)cccc21 | 4.3% | / | -7.8 | 1.8 | -3.6 | 10.8
Cc1cc(C)c(S(=O)(=O)Nc2ccc3c4c(cccc24)CC3)c(C)c1 | 14.7% | -1.3 | -3.7 | 4.8 | 11.5 | -7.0
COc1ccc(CCCc2nnc(SCC(=O)Nc3cc(C)ccc3C)o2)cc1 | 1.4% | 7.3 | 0.3 | -0.9&-0.2 | -8.2 | 2.5
NNC(=O)c1cc(C2CC2)nc2ccc(Br)cc12 | 6.2% | -3.0 | 3.1 | 0.7 | -4.2 | 2.8
C=CCOn1c(=O)c(-c2ccc(OC)cc2)[n+]([O-])c2ccccc21 | -0.7% | 0.0 | -0.3 | 0.2 | -14.4 | 18.2
O=C(NCCNC(=O)c1cc(Cl)ccc1Cl)c1cnccn1 | -0.9% | -13.9 | -10.4 | 1.8 | -8.9 | -6.6
Nc1nnc(SCC(=O)OCC(=O)Nc2ccc(Br)cc2F)s1 | -0.1% | 1.8 | -2.4 | -1.4 | -3.1 | 2.5
COc1ccccc1N1CC(C(=O)Nc2nnc(SCC(=O)NCC3CCCO3)s2)CC1=O (configuration not stated) | 1.1% | 1.2 | -1.9 | -0.3 | -31.1 | 13.6
O=C(NCCc1ccccc1)C(=O)Nc1ccc2c(c1)OCCO2 | 5.2% | / | -3.4 | 0.8 | -3.6 | 0.0
CC(NC(=O)c1ccc(OC2CCN(S(=O)(=O)N(C)C)CC2)cc1)C1CC1 (configuration not stated) | 0.1% | 14.3 | 0.1 | -1.4 | -1.5 | 1.6
COc1ccc(C(=O)C2CCN(C(=S)NCC3CCCO3)CC2)cc1 (configuration not stated) | -1.7% | -5.6 | 0.6 | 0.1 | -7.4 | 6.8
COc1cccc(/C=C/C(=O)OCC(=O)NCCCc2ccccc2)c1OC | 5.3% | 12.0 | -2.4 | -0.3 | -3.0 | 5.9
CC1CCCN(c2ccc(C(=O)NCc3cccs3)cn2)C1 (configuration not stated) | / | 11.7 | 3.3 | 0.5 | -4.9 | 4.2
Cc1noc(C)c1COC(=O)c1ccc2c(c1)S(=O)(=O)c1ccccc1C2=O | -2.6% | -9.7 | 0.2 | -0.3 | 18.9 | -5.7
CCN(Cc1ccccc1)C(=O)COC(=O)CNC(=O)c1ccc(C)s1 | 0.2% | 12.2 | -0.6 | 1.2 | -12.5 | -5.3
Cn1cccc1C(=O)OCC(=O)NC(=O)NC1CCCCC1 | 1.1% | 6.0 | -8.9 | -0.4 | -0.8 | -7.0
CC1CCCC(NC(=O)CCNC(=O)c2ccccc2Cl)C1C (configuration not stated) | -6.4% | 0.9 | 4.3 | 0.4 | 9.1 | -0.3
N#CC(=C=[N-])c1nc2ccccc2nc1-[n+]1cccc(NC(=O)c2ccccc2)c1 | 0.8% | / | -2.6 | -0.4 | -11.1 | 6.7
C[C@H](CO)N1C[C@H](C)[C@@H](CN(C)Cc2ccc(C(=O)O)cc2)Oc2ncc(Br)cc2C1=O | 1.5% | 5.8 | -6.7 | -0.7 | 4.5 | 1.1
Cc1ccc(N2C(=O)c3ccccc3C2=O)nc1 | 0.6% | / | -3.5 | 0.2 | -4.3 | 9.8
COc1cc(C)c(S(=O)(=O)Nc2ccc(CC(=O)O)cc2)cc1C | -1.7% | 2.3 | -1.3 | -0.4 | -0.9 | -0.5
O=C(NNC(=O)c1ccncc1)Nc1cccc([N+](=O)[O-])c1 | 1.1% | / | 5.1 | 1.7 | 29.3 | -4.3
O=C(COC(=O)c1c(F)cccc1F)NC(=O)NCc1ccccc1 | 1.6% | -8.7 | -0.7 | -0.3 | -14.1 | -17.0
Cc1nn(Cc2ccc([N+](=O)[O-])cc2)c(=O)n1-c1ccc(Cl)cc1 | 1.0% | -8.6 | -4.6 | -0.9 | 2.1 | -3.0
Cc1c(C)n(C)c2ccc(C(=O)NCCCN3CCCCC3)cc12 | -0.1%&0.3% | -13.4 | -3.5 | -0.6&1.4 | -39.1 | -12.5
COc1ccc(C(=O)Cn2nnc(-c3ccc(N4CCOCC4)cc3)n2)cc1OC | -0.5% | 0.3 | -2.7 | -0.3 | -9.0 | -2.7
Cc1ccc(C)c(CN2C(=O)CSc3ccc(C(=O)NCCN4CCOCC4)cc32)c1 | 2.7% | -7.0 | -0.3 | -0.6 | -5.7 | -2.7
COC(=O)CCCCCNC(=S)Nc1ccc2[nH]c(=O)[nH]c2c1 | 2.2% | 2.2 | -4.8 | 0.8 | -10.2 | 8.9
Cc1ccc(N2CC(C(=O)Nc3ccc(N(C)C)cc3)CC2=O)cc1C (configuration not stated) | / | -1.8 | 0.3 | 0.1 | 10.8 | -18.5
CC1CCCCN1CCn1cnc2c([nH]c3ccccc32)c1=O (configuration not stated) | -0.3% | -0.3 | -3.1 | 0.1 | -4.3 | 4.3
C=CCSc1nnc(CC(OC)OC)n1-c1ccccc1 | -1.7% | 5.4 | 1.9 | -0.2 | -3.6 | -1.7
Cc1ccn2cc(-c3ccc(O)c(O)c3)nc2c1 | ? | / | 12.7 | -0.7 | 3.4 | -5.7
CCOc1ccccc1Nc1nnc(SCC(=O)Nc2nc(-c3ccc(OC)cc3)cs2)s1 | -0.2% | -1.9 | 9.2 | -0.4 | 0.9 | -4.4
